Vaccinia Venus: vaccinia inhibition (Venus reporter) | Vaccinia virus Venus reporter expression, fluorescence | 330,000 compounds, 0.46% hits | Potency, µM (doses to about 36.5 µM), for the others: top-dose activity change, negative = inhibition, usual class: inhibitors | AID 720580; active means well fitted inhibition curve with a large enough effect; inconclusive means small, poorly fitted or top-dose-only effect; inactive means no such curve, though single readings can be large or run the other way; tested in A549 cells; note: nearly all actives have a fitted effect of over 30% in size; inactives centre near -10
Vaccinia mCherry: vaccinia inhibition (mCherry reporter) | Vaccinia virus mCherry reporter infection, fluorescence; about a quarter of the inactives have no number | Potency, µM (highest dose often 36.5 µM), inactives show top-dose activity change, negative = inhibition, hits mostly inhibitors | 310,000 compounds, 0.63% hits; active = well fitted inhibition curve with a large enough effect; inconclusive = small, poorly fitted or top-dose-only effect; inactive = no such curve, though single readings can be large or run the other way; tested in A549 cells; note: nearly all actives have a fitted effect of over 35% in size; inactives centre near -10
* marks the source's active call; other numbers are inactive results; i = inactive; ? = inconclusive; / = not tested or not shown; & = joins results of further samples; [ ] = dose if it differs, or a comment. % is set by controls: 0 for no effect and ±100 for the full control effect; potency is the fitted concentration of half-maximal effect.

SMILES | Vaccinia Venus | Vaccinia mCherry
Cc1ccc(NC(=O)N(CCCN2CCOCC2)Cc2cccnc2)cc1C | 3% | i
Cc1ccc(NC(=O)CC(C)CC2=NS(=O)(=O)c3ccccc3N2)cc1 (configuration not stated) | -2% | 5%
COc1ccc(Cl)cc1S(=O)(=O)Nc1ccncc1 | -3% | -14%
CC1CCC(NC(=O)c2cc(S(=O)(=O)N3CCCCC3)c[nH]2)CC1 (configuration not stated) | -27% | -12%
CC1CCC2(CC1)NC(=O)N(CC(=O)NC(=O)NC1CCCC1)C2=O (configuration not stated) | -14% | -3%
COC(C(=O)Nc1ccc(S(=O)(=O)Nc2c(C)cccc2C)cc1)c1ccccc1 (configuration not stated) | -4% | i
CCC(C)C(NC(=O)C(Cc1ccc(O)cc1)NC(=O)OCc1ccccc1)C(=O)OC (configuration not stated) | 4% | 8%
Cc1cc(C(=O)Nc2ccccc2N2CCOCC2)c2ccccc2n1 | -20% | -7%
COc1ccccc1C(C(=O)NC1CCCC1)N(C(=O)c1csnn1)C1CC1 (configuration not stated) | -10% | -5%
CC1(C)CC(=O)C=C(Nc2ccc(Cl)cc2)C1 | -3% | -11%
CCc1nnc(SCC(=O)Nc2ccc(Cl)cc2F)c2cc3occc3n12 | 4% | -5%
CSc1ccc(CN2CCN(C(C)C)C(CCO)C2)cc1 (configuration not stated) | 1% | -8%
O=C(NCc1cccs1)c1ccc(-c2ccc(F)c(F)c2)c2ccoc12 | -6% | i
CN(C(=O)CSc1nncn1-c1ccccc1)c1ccccc1 | ? | ?
CCCC(=O)Nc1cc(OC)c(NC(=O)NC2CCCCC2)cc1OC | -13% | i
COc1ccc(C(=O)NCC(=O)N2CCC(C)CC2)cc1OC | 2% | -1%
CC(C)=CCCC(C)c1cc(C(=O)NCCc2ccc(O)cc2)c(N)s1 (configuration not stated) | -27% | ?
CCOc1ccc(NS(=O)(=O)c2ccc3[nH]cc(C(=O)N(C)C4CCCCC4)c(=O)c3c2)cc1 | 4% | -5%
Cc1ccc2nc(-c3cccnc3)oc2c1 | -8%&-21% | -7%&-8%
Cc1ccc(C(=O)O)cc1N1C(=O)c2cccc3cc(Br)cc(c23)C1=O | -23% | -10%
Cc1ccc(-c2nonc2NC(=O)c2ccco2)cc1C | 1% | -9%
COc1ccc(CCNc2cc(-c3ccccc3)nc3ncnn23)cc1 | -6% | i
CCOC(=O)C1=C(C)N(C[C@@H]2CC[C@@H](Cc3ccc(-c4ccccc4)cc3)O2)C(=O)NC1c1ccc(Cl)cc1 (some centres not stated) | ? | i
Cc1csc(-c2coc3cc(O)cc(C)c3c2=O)n1 | -21% | -24%
O=C(COC(=O)/C=C/c1ccc([N+](=O)[O-])cc1)NNC(=O)c1ccccc1 | -7% | -12%
COc1cc(NS(=O)(=O)c2ccc3[nH]c(=O)oc3c2)cc(OC)c1 | -10% | -1%
N#Cc1ccccc1Sc1ccccc1C(=O)N1CCOCC1 | -8% | /
COc1ccc(C)cc1NC(=O)N1CC(C)Sc2ccccc21 (configuration not stated) | -7% | -15%
CC1CCCCN1C(=O)C(=O)c1cn(CC(=O)N2CCCCCC2)c2ccccc12 (configuration not stated) | -1% | i
O=C(CN1C(=O)COc2ccccc21)NCC1CCCO1 (configuration not stated) | 2% | -13%
COC(=O)c1ccc(C(=O)OC)c(NC(=S)N2CCN(c3ccccc3F)CC2)c1 | -5% | -15%
COc1cc2c(Cc3ccccc3)cncc2cc1O | -17% | -28%
CCOc1cccc(/C(O)=C2/C(=O)C(=O)N(Cc3ccco3)C2c2ccncc2)c1 (configuration not stated) | 4% | -11%
CCc1ccc(OCCCC(=O)Nc2nnc(C3CCCO3)s2)cc1 (configuration not stated) | -7% | -10%
O=C(O)CN1C(=O)C2(OCCCO2)c2ccccc21 | -17% | 0%
CCC/C=C/c1ccc(CN2C(CC(C)C)C(=O)N(Cc3cn(Cc4ccco4)nn3)CCS2(=O)=O)cc1 (configuration not stated) | -23% | i
CC1CCCN(Cc2c(O)ccc3c2O/C(=C\c2ccco2)C3=O)C1 (configuration not stated) | 2% | -6%
Cc1cccc(NC(=O)Cn2cc(C(=O)c3ccccc3)c3ccccc32)c1 | -22% | -15%
O=C(C1CCC1)N1CCc2cc(S(=O)(=O)N3CCN(c4ccccc4)CC3)ccc21 | -5% | -9%
CCCCn1nnnc1C(C1CC1)N1CCN(C/C=C/c2ccccc2)CC1 (configuration not stated) | -14% | -4%

A few values from above.
Result for CSc1ccc(CN2CCN(C(C)C)C(CCO)C2)cc1 (configuration not stated) in Vaccinia Venus: 1%
Result for COc1ccc(C(=O)NCC(=O)N2CCC(C)CC2)cc1OC in Vaccinia mCherry: -1%
Result for COc1ccccc1C(C(=O)NC1CCCC1)N(C(=O)c1csnn1)C1CC1 (configuration not stated) in Vaccinia Venus: -10%

(cont.)
SMILES | Vaccinia Venus | Vaccinia mCherry
Cc1cc2c(c(-c3ccc4nc(C)ccc4c3)c1)OC(CNC(=O)Cc1ccn(C)c1)C2 (configuration not stated) | -15% | -25%
CCN(CC)C(=O)c1csc([C@H]2C[C@H](O)[C@@H](CO)O2)n1 | 8% | 17%
Cc1oc(-c2cccc(Cl)c2)nc1CN1CCC(C(=O)NCCCN2CCN(c3cccc(Cl)c3)CC2)CC1 | ? | ?
CCOC(=O)c1sc2ccccc2c1S(=O)(=O)Nc1ccc(OC)c(Cl)c1 | -15% | -16%
CCOc1ccc(C(=O)OC(C)C(=O)N2CCN(Cc3ccccc3)CC2)cc1 (configuration not stated) | -18% | -9%
Cc1ccc(C2CC(=O)n3nc(-c4ccc(F)cc4)nc3S2)cc1 (configuration not stated) | -15% | i
CC(/C=C1\SC(=S)N(CC(=O)N2CCN(c3ccccc3)CC2)C1=O)=C\c1ccccc1 | 3% | -15%
COc1cc2c(cc1OC(C)=O)CCCCC2=O | -8% | i
CCOc1ccc(C2c3c(oc4ccc(C)cc4c3=O)C(=O)N2CCCN(C)C)cc1 (configuration not stated) | 0% | -6%
COc1c(Cl)cc(Cl)cc1CNCCO | -23% | -5%

In the list so far, these have a Cl atom:
SMILES | Vaccinia Venus | Vaccinia mCherry
COc1ccc(Cl)cc1S(=O)(=O)Nc1ccncc1 | -3% | -14%
CC1(C)CC(=O)C=C(Nc2ccc(Cl)cc2)C1 | -3% | -11%
CCc1nnc(SCC(=O)Nc2ccc(Cl)cc2F)c2cc3occc3n12 | 4% | -5%
CCOC(=O)C1=C(C)N(C[C@@H]2CC[C@@H](Cc3ccc(-c4ccccc4)cc3)O2)C(=O)NC1c1ccc(Cl)cc1 (some centres not stated) | ? | i
Cc1oc(-c2cccc(Cl)c2)nc1CN1CCC(C(=O)NCCCN2CCN(c3cccc(Cl)c3)CC2)CC1 | ? | ?
CCOC(=O)c1sc2ccccc2c1S(=O)(=O)Nc1ccc(OC)c(Cl)c1 | -15% | -16%
COc1c(Cl)cc(Cl)cc1CNCCO | -23% | -5%

Continued.
SMILES | Vaccinia Venus | Vaccinia mCherry
O=C(COc1ccc(S(=O)(=O)NCc2ccccc2)cc1Cl)NCC1CCCO1 (configuration not stated) | -10% | i
CCOC(=O)C1(Cc2cccc(OC)c2)CCN(Cc2cccc(O)c2)CC1 | -7% | -6%
CCOc1cc(C(=O)OCC(=O)c2c[nH]c3ccccc23)ccc1OCC(=O)N1CCOCC1 | -12% | -15%
CCNC(=S)N/N=C(\C)c1ccc(N2CCOCC2)cc1 | -14% | i
CCN(c1cccc(C)c1)S(=O)(=O)c1ccc(N2CCCCS2(=O)=O)cc1 | 0% | 3%
CCN1CCCC1CNC(=O)c1ccc2c(c1)NC(=O)/C(=C\c1ccccc1F)S2 (configuration not stated) | ? | -6%
O=C(c1cccnc1)N1CCc2ccccc2C1 | -4% | -1%
Cc1nn(C2CCS(=O)(=O)C2)c(Cl)c1/C=C/C(=O)OCC(=O)Nc1ccc2c(c1)OCO2 (configuration not stated) | -25% | -20%
CC1(C(=O)Nc2ccc(Cl)cc2)Cc2c(-c3ccc(C(N)=O)cc3)ccnc2O1 (configuration not stated) | -5% | 14%
CC1=CC(=O)NP(=O)(Oc2ccc3ccccc3c2)N1 (configuration not stated) | -12% | /
CCOc1ccc2[nH]c(=O)c(=O)[nH]c2c1 | -3% | /
Cn1nnnc1NN=Cc1ccccc1 | -15% | -12%
Nc1ccc(CCc2nc3ccccc3o2)cc1 | -15% | i
CN(C)CCN=Cc1c(O)n(Cc2ccc3c(c2)OCO3)c(=S)[nH]c1=O | -13% | 0%
CN1C(=O)c2cccc3c(S(=O)(=O)Nc4ccccn4)ccc1c23 | 1% | 13%
COc1ccc(-c2cc3nc(C)c(CCC(=O)NCCc4ccc(Cl)cc4)c(C)n3n2)c(OC)c1 | -8% | -15%
CCn1cc(CN2CCC(C(=O)Nc3cccc(-c4cccc(OC)c4)c3)CC2)cn1 | -7% | -13%
Cc1cc(C)c(S(=O)(=O)N2CCN(c3ccc([N+](=O)[O-])c(NCc4ccco4)c3)CC2)c(C)c1 | 10% | -6%
CC(=O)c1ccc(Sc2ccccc2)c([N+](=O)[O-])c1 | -4%[7.34 µM] | i[7.34 µM]
CC(C)(C)c1ccc(OCCC(=O)Nc2ccc(N3CCOCC3)cc2N2CCOCC2)cc1 | -26% | 13µM*

Some of the entries so far, with values under each structure:
Screens in order: Vaccinia Venus	Vaccinia mCherry
COc1ccc(-c2cc3nc(C)c(CCC(=O)NCCc4ccc(Cl)cc4)c(C)n3n2)c(OC)c1
    -8%	-15%
CCn1cc(CN2CCC(C(=O)Nc3cccc(-c4cccc(OC)c4)c3)CC2)cn1
    -7%	-13%
CC(=O)c1ccc(Sc2ccccc2)c([N+](=O)[O-])c1
    -4%[7.34 µM]	i[7.34 µM]
CN1C(=O)c2cccc3c(S(=O)(=O)Nc4ccccn4)ccc1c23
    1%	13%

The results go on:
SMILES | Vaccinia Venus | Vaccinia mCherry
O=C1NC2(C=Cc3c(ccc4ccccc34)O2)Oc2ccccc21 (configuration not stated) | ? | -16%
COc1cccc(/C=C/C(=O)OCC(=O)Nc2cccc(S(=O)(=O)N3CCOCC3)c2)c1OC | -2% | -2%
O=C(Cc1ccccc1)OCCNC(=O)c1cccnc1 | -2% | i
Cc1oc(-c2ccc(Cl)cc2)nc1CN1C(=O)CN=C(c2ccccc2)c2ccccc21 | -23% | -22%
CCN1C/C(=C/c2ccc(N3CCOCC3)cc2)C(=O)/C(=C/c2ccc(N3CCOCC3)cc2)C1 | 56%[activator] | 11µM*
CCOC(=O)C1=CCN(S(=O)(=O)c2ccc(C)cc2)C1c1ccc(Cl)c(Cl)c1 (configuration not stated) | -3% | 48%[activator]
CC(C)(C)NC(=O)C(OC(=O)c1cccs1)c1ccccc1 (configuration not stated) | 2% | i
O=C(Nc1ccc2c(c1)OCO2)c1ccc2c(c1)S(=O)(=O)c1ccccc1C2=O | -13% | i
CCOC(=O)C1(C(=O)OCC)NC(=O)CC1C (configuration not stated) | -10% | -23%
O=C(Cn1nc(C(F)(F)F)c2c1CCCC2)Nc1ccc(Br)cc1 | -21% | -22%
CC(C)C[C@@H](COCc1cccc(C(F)(F)F)c1)N1CCN(C(=O)c2ccc(C(F)(F)F)cc2)CCC1=O | -19% | -7%
Cc1csc(SCC(=O)NC(=O)NCCC(C)C)n1 | -19% | -23%
CSc1ncc(Cl)c(C(=O)NCc2ccc3c(c2)OCO3)n1 | -19% | /
CN(C)S(=O)(=O)N(CC(=O)Nc1ccc2ccccc2c1)c1ccccc1 | ? | /
Nc1nc(SCC(=O)Nc2ccc([N+](=O)[O-])cc2)[nH]c(=O)c1NC(=O)c1ccc(Br)o1 | -9% | -6%
CC(Oc1ccccc1)C(=O)Nc1ccc(OCc2cc(=O)n3ccsc3n2)cc1 (configuration not stated) | -3% | -8%
O=C(CSc1nc2c([nH]c3ccccc32)c(=O)n1-c1ccc(Cl)cc1)N1CCOCC1 | 9% | 9%
COc1cccc(NC(=S)N(CCCN2CCC(C)CC2)Cc2cccs2)c1 | -6% | -16%

Five structures from above, sorted by formula weight, low to high.
SMILES | Vaccinia Venus | Vaccinia mCherry
Cc1csc(SCC(=O)NC(=O)NCCC(C)C)n1 | -19% | -23%
CSc1ncc(Cl)c(C(=O)NCc2ccc3c(c2)OCO3)n1 | -19% | /
COc1cccc(NC(=S)N(CCCN2CCC(C)CC2)Cc2cccs2)c1 | -6% | -16%
CC(Oc1ccccc1)C(=O)Nc1ccc(OCc2cc(=O)n3ccsc3n2)cc1 (configuration not stated) | -3% | -8%
Nc1nc(SCC(=O)Nc2ccc([N+](=O)[O-])cc2)[nH]c(=O)c1NC(=O)c1ccc(Br)o1 | -9% | -6%
